Source: PubChem
gsp agonist: activates gsp, the McCune-Albright syndrome mutation. gsp mutant cells, cAMP HTRF, 30 min; control for the full effect not named in the record. Potency, µM (doses to about 76.9 µM), for the others: top-dose activation (cAMP increase), actives largely listed as activators. 0.13% of 340,000 active. AID 624287; active = well fitted activation curve with a large enough effect; inconclusive = small, poorly fitted or top-dose-only effect, or another doubt; inactive = no such curve, though single readings can be large or run the other way; cell line not stated here;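 also: phosphodiesterase inhibitor Ro 20-1724 added with compounds to block cAMP breakdown; potency is read from the fitted curve at half-maximal effect; nearly all actives have a fitted effect of over 60% in size; about a fifth of the inactives were tested at one dose only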
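Cells in DMEM/10% FBS with G418 were pretreated with compounds in DMSO plus […] (300 uM stock) for 30 min at 37C. cAMP was measured by HTRF (cAMP-d2 plus anti-cAMP antibody-K) after 30 min at room temperature.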
TRPV1 potentiator: human TRPV1 potentiation | potentiation, % at 8.33 µM | 0.02% of 320,000 active | AID 540277 | TRPV1-expressing cells, Fluo-8 calcium influx, capsaicin EC20 potentiation; host cell line not named in the record; control for the full effect not named in the record | Q8NER1; active means potentiation above 80%; inconclusive means 30% to 80%; inactive means below 30%; also: 0% is about no effect
Target sequence (Q8NER1 whole entry, looked up): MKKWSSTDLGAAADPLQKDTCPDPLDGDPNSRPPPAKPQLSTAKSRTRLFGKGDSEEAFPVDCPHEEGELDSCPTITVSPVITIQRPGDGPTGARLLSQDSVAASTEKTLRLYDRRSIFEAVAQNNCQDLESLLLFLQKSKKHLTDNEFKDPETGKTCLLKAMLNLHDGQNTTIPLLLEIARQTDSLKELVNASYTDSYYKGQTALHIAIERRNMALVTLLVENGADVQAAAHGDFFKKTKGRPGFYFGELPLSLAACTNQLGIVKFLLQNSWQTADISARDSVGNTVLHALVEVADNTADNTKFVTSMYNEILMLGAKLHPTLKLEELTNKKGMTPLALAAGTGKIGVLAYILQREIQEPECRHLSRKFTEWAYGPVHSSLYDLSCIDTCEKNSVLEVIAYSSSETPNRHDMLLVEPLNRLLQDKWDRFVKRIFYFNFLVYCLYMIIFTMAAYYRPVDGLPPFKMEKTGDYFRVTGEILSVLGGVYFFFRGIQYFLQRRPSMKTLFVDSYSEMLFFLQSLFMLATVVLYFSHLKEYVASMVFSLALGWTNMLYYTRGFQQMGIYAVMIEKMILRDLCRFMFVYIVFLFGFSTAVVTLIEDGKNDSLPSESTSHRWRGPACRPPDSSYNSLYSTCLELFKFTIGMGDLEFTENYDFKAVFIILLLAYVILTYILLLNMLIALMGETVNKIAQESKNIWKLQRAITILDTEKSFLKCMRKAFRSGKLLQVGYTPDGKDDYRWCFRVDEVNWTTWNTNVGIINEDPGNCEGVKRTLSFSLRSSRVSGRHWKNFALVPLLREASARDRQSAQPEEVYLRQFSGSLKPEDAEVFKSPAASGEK
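Fluo-8 calcium influx in TRPV1-expressing cells, kinetic read (ex 480/em 520 nm). Compound added and read 3 min for agonist activity, followed by capsaicin at EC20 final and 2 min further read for enhancement.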
TRPML1 blocker: inhibitors of human TRPML1 channel. Q9GZU1. TRPML1-inducible cells, Ca2+ dye fluorescence, FDSS; stronger effect = lower value; inhibition of EC80 agonist-evoked calcium signal. activity change, negative = inhibition, % (test concentration not listed). 0.02% of 390,000 active. AID 624415; in the data active means activity change below about -50%; inconclusive means about -30% to -50%; inactive means above about -30%;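 also: stimulus is agonist 54-4 at its EC80 concentration; % is scaled to controls: 0 for no effect and ±100 for the full control effect; compound concentration not given in the record; the text of the record puts the active cut at -80%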
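Tet-induced TRPML1-DL cells loaded with Ca8 no-wash calcium dye were read kinetically on FDSS. Compound addition was followed by EC80 agonist 54-4 (4 uM final); inhibition was read over 110 s.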
ClpP mod: qHTS Assay for Activators of ClpP. Potency, µM (series often up to 57.5 µM), inactives show top-dose activity change, negative = active. purified B. subtilis ClpP, FRET peptide cleavage, 20 min. ATP-dependent Clp protease proteolytic subunit (Bacillus subtilis (strain 168)), P80244. 1.9% of 340,000 active; active = well fitted falling curve with a large enough effect; inconclusive = small, poorly fitted or top-dose-only effect; inactive = no such curve, though single readings can be large or run the other way; also: potency is read from the fitted curve at half-maximal effect; the source files actives as falling curves though it sought activators and does not explain the sign; nearly all actives have a fitted effect of over 65% in size; many hits overshoot -100%
Target sequence (P80244 whole entry, looked up): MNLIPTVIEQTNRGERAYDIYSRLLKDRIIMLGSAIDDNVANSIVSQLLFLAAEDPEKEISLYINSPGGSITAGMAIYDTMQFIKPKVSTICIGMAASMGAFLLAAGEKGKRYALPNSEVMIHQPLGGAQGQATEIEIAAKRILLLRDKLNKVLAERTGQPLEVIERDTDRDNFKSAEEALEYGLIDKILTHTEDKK
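FRET quenching reversal measured ClpP activation: 10 microg/mL B. subtilis ClpP at pH 8 with the FRET-FV decapeptide, read at 430 nm after 320 nm excitation. The 20-min minus 0-min signal was scaled between DMSO/no-enzyme wells and ADEP (5.8 microM final).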
Sfp inh: inhibitors of Bacillus subtilis Sfp phosphopantetheinyl transferase; Biochemical Sfp PPTase activity, qHTS; AID 1490; Potency, µM, for the others: max response, negative = inhibition, actives largely listed as inhibitors; Q9F4F7; 3.5% of 310,000 active; active = well fitted inhibition curve with a large enough effect; inconclusive = small, poorly fitted or top-dose-only effect, or another doubt; inactive = no such curve, though single readings can be large or run the other way;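 also: the enzyme is Sfp with the accession as filed and its product quenches rhodamine fluorescence; potency is read from the fitted curve at half-maximal effect; 0% = enzyme reaction without inhibitor and -100% = no enzyme wells; top concentration of the series not given in the record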
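Fluorescence-quenching assay with 15 nM Sfp, 5 uM rhodamine-CoA and 12.5 uM BHQ-2-labelled ybbR peptide in pH 7.6 Hepes/MgCl2 buffer. Enzyme was pre-incubated with compound for 15 min at room temperature. Rate was taken from the 30-min fluorescence change (525/598 nm).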
Menin-MLL FL inh: displaces fluorescein MLL peptide from human menin; 290,000 tested, under 10 active; FP activity change, % at 61.4 µM; AID 1766; Fluorescence polarization, fluorescein-MLL peptide displacement from menin; inconclusive = falling polarisation curve, or a change in total fluorescence; inactive = total fluorescence flat and polarisation flat or rising; no compound was filed as active; the % refers to the polarisation; negative = inhibition;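 also: % of control where 0% means no effect; inhibitors lower the polarisation; unlabelled MLL peptide was the positive control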
gsp antag: antagonizes gsp, the McCune-Albright syndrome mutation; gsp-mutant cells, cAMP HTRF, 30 min; control for the full effect not named in the record; Potency, µM (doses to about 76.9 µM), inactives show at the highest dose activity change, negative = inhibition, hits mostly inhibitors; 0.4% of 340,000 active; AID 624288; active = falling curve of any shape with a large fitted effect; inconclusive = falling curve, mostly with a smaller effect; inactive = flat or rising curve; cell line not stated here;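 also: intracellular cAMP measured with PDE inhibitor Ro 20-1724 present during compound exposure; potency is read from the fitted curve at half-maximal effect; % is scaled to controls: 0 for no effect and ±100 for the full control effect; nearly all actives have a fitted effect of over 65% in size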
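Cells, 2000/well, grown 16–24 h in DMEM 10% FBS with 0.5 mg/ml G418, then compounds plus […] (300 uM addition stock), 30 min at 37C. cAMP read by HTRF (cAMP-d2 and anti-cAMP antibody-K in lysis buffer) after 30 min RT.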
Numbers without * were called inactive; ? = inconclusive; · = no result given; & = joins results of further samples; [ ] = remark or other dose.

SMILES | gsp agonist | TRPV1 potentiator | TRPML1 blocker | ClpP mod | Sfp inh | Menin-MLL FL inh | gsp antag
O=C(NC(=O)N1CCCCCC1)c1ccccc1 | -18% | 5 | 57 | -2.0% | 10% | · | 13%
CC1CN(CN2C(=O)c3ccccc3C2=O)CC(C)O1 (centres undefined) | -2% | 1 | -6 | -0.8% | 9% | 0.4 | 2%
CCN(CC)CCNC(=S)Nc1ccc2nc3n(c(=O)c2c1)CCCCC3 | -4% | -2 | 7 | · | 8% | -3.5 | 10%
O=C(O)c1ccc(NC(CSCc2cccc(F)c2)C(=O)O)c([N+](=O)[O-])c1 (centres undefined) | -2% | -1 | -2 | 1.3% | 3% | 0.8 | 1%
COc1ccccc1OCC(=O)N1CCNC1=O | 1% | -6 | -7 | 0.2% | -10% | 4.0 | 5%
O=C(NCCSC1CCCCC1)c1ccccc1 | -45%[inhibitor] | -12 | 7 | · | 15% | -3.2 | 1%
CCCn1c(SCC(=O)/C(C#N)=C(\C)N)n[nH]c1=O | -33%[inhibitor] | 5 | 26 | -0.8% | 6% | 6.8 | -3%
CCCN(CCC)S(=O)(=O)c1ccc(N2CCCC2=O)c([N+](=O)[O-])c1 | 1% | -8 | 3 | 1.6% | 5% | -3.3 | 13%
Cc1cc(C)cc(NC(=O)C2(c3ccccc3)CC2(Cl)Cl)c1 (centres undefined) | 6% | -8 | -13 | -1.2% | 4% | -1.3 | -26%
O=C(CS(=O)(=O)c1ccccc1)NCc1ccco1 | -3%[15.4 µM] | 4 | -4 | · | 16% | 2.3 | -16%
c1ccc(-c2onc(-c3ccco3)c2-c2ccc3[nH]ccc3c2)cc1 | 10% | 22 | -2 | -7.9%&-19% | -11% | 0.1 | -27%
CN(CCC#N)C(=O)COC(=O)c1ccccc1C(=O)c1ccc(Cl)c([N+](=O)[O-])c1 | 7%[15.4 µM] | -1 | -11 | · | 5% | -6.9 | -16%
CCOC(=O)C1CCCN(C(=O)c2cc(-c3ccccc3)on2)C1 (centres undefined) | -38%[inhibitor] | -21 | 29 | -0.9% | 7% | 3.1 | 1%
CSCCC(NC(=O)c1cncc(Br)c1)C(=O)O (centres undefined) | -8% | ? | -17 | 0.0% | -17% | -3.1 | 9%
O=C(COC(=O)C1CCCCC1)Nc1ccc([N+](=O)[O-])cc1 | -35%[15.4 µM] | -12 | 1 | · | -7% | 0.1 | 11%
COc1ccc(Cl)cc1NC(=O)CC(=O)Nc1cc(Cl)ccc1OC | -8%[15.4 µM] | -5 | 23 | · | 11% | 5.7 | -2%
O=C(NC1CC(=O)c2sccc21)c1ccc(Cl)cc1Cl (centres undefined) | 5% | 20 | -5 | -1.9% | 14% | -5.3 | -19%
Cc1ccccc1NS(=O)(=O)c1cc(OCC(N)=O)c(C)cc1Cl | -41%[inhibitor] | 4 | 24 | -0.6% | 20% | 5.4 | -2%
Cc1cccc(NC(=O)Cn2c(=O)oc3ccccc32)c1 | -24% | -20 | -5 | 2.9% | 4% | -7.1 | -7%
CCO[C@@H]1OC(C(=O)NCc2ccccc2)=C[C@H](c2ccccc2)[C@H]1CCCO | 7% | 8 | -5 | -1.9% | -10% | -2.7 | -4%
COCCCn1c2nc3ccccc3nc2c2c(=O)n(Cc3ccccc3Cl)cnc21 | · | ? | · | · | 21% | 3.5 | ·
COc1ccc(N2CC(C(=O)N[C@H](C(=O)NC(C)c3ccccc3)C(C)C)CC2=O)cc1 (some centres undefined) | -5% | -2 | 1 | 1.1% | 4% | · | -2%
O=C(Cn1c(=O)oc2ccccc21)N1CCCCC1 | -18% | -2 | -19 | -1.7% | 10% | -0.7 | -4%
COc1cc(C(=O)Nc2ccc3c(c2)N(C(=O)CCN(C)C)c2ccccc2CC3)cc(OC)c1OC | -10% | -10 | -5 | · | 4% | -8.2 | 6%
O=C(NCCc1ccccc1)C1CCCN(C(=O)NC2CCCCC2)C1 (centres undefined) | -1% | -25 | 3 | 0.8% | 8% | -6.7 | 6%
COc1ccc2nc(SCC(=O)NC3(C#N)CCCCC3)[nH]c2c1 | -55%[inhibitor] | 16 | -8 | -1.5% | · | · | -2%
COC(=O)c1ccc([C@H]2C=C(C(=O)O)O[C@@H](OCc3ccc(CO)cc3)C2)cc1 | · | -22 | 29 | -4.4% | -4% | 1.2 | -3%
O=C(Cn1c(=O)oc2ccccc21)N1CCN(c2ccccc2)CC1 | 18% | -10 | -13 | -2.9% | 3% | 1.7 | 6%
Cc1cc(C)c(-c2csc(NC(=O)CCCc3nc4ccccc4c(=O)[nH]3)n2)c(C)c1 | -10%[15.4 µM] | -7 | -6 | · | · | · | -8%
CC(CC(=O)O)C(=O)c1ccc(Cl)c([N+](=O)[O-])c1 (centres undefined) | -5%[15.4 µM] | 2 | 2 | · | 20% | 0.8 | -90%
CN1CCN(C(=O)c2ccc(S(=O)(=O)N(C)c3ccccc3)cc2)CC1 | -21% | · | -7 | -3.1% | · | · | ·
O=C(Nc1nc(-c2ccc3c(c2)OCO3)cs1)C1COc2ccccc2O1 (centres undefined) | 7% | 11 | -9 | -4.3% | 8% | 2.4 | -18%
CC(=O)Nc1ccc(S(=O)(=O)NNC(=O)COc2ccc(C(C)(C)C)cc2)cc1 | ? | -14 | 17 | -9.9% | 0% | 0.3 | 0%
COc1ccc(S(=O)(=O)N[C@@H](CC(C)C)C(=O)O)cc1 | ? | 2 | -6 | 82% | 11% | 2.0 | 7%
O=C(COC(=O)c1cnccn1)c1ccccc1 | 16%[15.4 µM] | -11 | 16 | -2.8% | 16% | 5.3 | 3%
COc1cc(C(=O)NCc2ccc3c(c2)cc(C)n3C)cc(OC)c1OC | 15% | 0 | -10 | · | 5% | -11 | 3%
CCCn1c(SCc2ccc(C(=O)OC)o2)nc2ccccc2c1=O | 10%[15.4 µM] | -2 | -8 | · | -8% | -3.9 | -3%
COc1ccccc1C(=O)NCC(C)(C)CN=C1NS(=O)(=O)c2ccccc21 | 3%[15.4 µM] | 10 | 20 | · | -6% | 0.6 | ?
Cc1onc(-c2ccccc2Cl)c1C(=O)N1CC(C)OC(C)C1 (centres undefined) | 9% | 9 | 6 | 0.0% | 11% | 5.2 | 0%
O=C(COC(=O)c1ccccc1)NCc1ccco1 | 19% | 9 | 15 | -2.3% | -20% | 0.6 | 0%
COc1ccc([N+](=O)[O-])c(O)c1C(C)=O | 9% | · | 1 | · | · | · | -2%
Cc1ccc(NC(=O)NN2CCN(C)CC2)cc1C | -14% | 17 | -11 | 0.4% | 10% | -1.9 | 2%
COC(=O)COC(=O)c1ccc(Oc2nc(OC)nc(N(C)C)n2)cc1 | 0% | -6 | -10 | 0.4% | -4% | -2.7 | -2%
Cc1cc(C)cc(N(C(=O)c2ccccn2)C(C(=O)NC2CCCCC2)c2ccncc2)c1 (centres undefined) | -4% | 2 | 7 | · | 20% | 1.5 | 4%
CCN(CC)C(=O)c1sc2[nH]c(=S)n(-c3ccccc3)c(=O)c2c1C | ? | -5 | 5 | -8.6% | 79µM* | 1.2 | 1%
Cc1cc(C(=O)Nc2c(C)cccc2C)n(-c2ccccc2)n1 | -8% | -10 | 31&-16 | -0.1%&0.8% | 0% | 0.7 | 11%
Cc1cc(S(=O)(=O)Nc2ncnc3sccc23)ccc1F | -38% | · | -2 | -1.0% | · | · | ·
COc1ccc(OC)c(Nc2ncnc3sccc23)c1 | 21% | 13 | 17 | -3.5% | 4% | 2.7 | -5%
COc1ccc(CN2C(=O)C(O)(CC(=O)c3c(C)n[nH]c3C)c3ccccc32)cc1OC (centres undefined) | ? | 3 | 5 | -1.0% | 4% | -1.8 | 11%
CC1CCCN(C(=O)CSCC(=O)Nc2nc(-c3cccs3)cs2)C1 (centres undefined) | ? | -2 | 0 | -1.1% | -15% | -1.9 | -19%
O=C(NCc1ccc(F)cc1)C1CCCN(S(=O)(=O)c2cccc3nsnc23)C1 (centres undefined) | -33%[inhibitor] | -4 | -23 | -0.7% | 8% | 11 | -9%
COCCNC(=O)NC(=O)COC(=O)c1ccc2[nH]c3c(c2c1)CCCC3 | -11%[15.4 µM] | 4 | 22 | · | 7% | -4.5 | 9%
CCCCNC(=S)N(Cc1c(C)noc1C)c1ccccc1 | 14% | -36 | 23 | 4µM* | 8% | -0.9 | 0%
CSc1nc(N)c2cn[nH]c2n1 | -1%[15.4 µM] | · | -14 | 0.9% | · | · | -7%
CC(C)(C)SCCNS(=O)(=O)c1ccc(C#N)cc1 | -3%[15.4 µM] | -1 | 25 | -0.3% | 16% | 2.5 | -27%
CCCc1ccc(S(=O)(=O)N2CCN(C(=O)c3cc(C)on3)CC2)cc1 | 1% | · | 3 | -10% | · | · | ·
Cc1cccc(NC2=NC(=S)N(CC#N)C23CCCCC3)c1 | -21% | -3 | 6 | 3.1% | 7% | 2.0 | -20%
NC(=O)C1(NC2CCCCC2)CCN(Cc2ccccc2)CC1 | 13% | · | -17 | · | · | · | 2%
CC1C(C)N(C(=O)CCCl)c2ccccc2N1C(=O)CCCl (centres undefined) | 9% | · | 7 | · | · | · | 6%
CNC(=O)N1CCC(C(=O)c2c(C)c(C)c(C)c(C)c2C)CC1 | ? | -16 | 17 | 1.5% | 7% | 1.8 | 9%
COc1ccc(-c2nc(C#N)c(NCC3CCCO3)o2)cc1 (centres undefined) | -26% | 16 | 7 | 30% | -7% | -0.7 | -6%
C=CCCOc1ccccc1C(N)=O | ? | 3 | -2 | · | 2% | 3.8 | 9%
COc1ccc2c(C)c(Cc3ccccc3)c(=O)oc2c1OC | -22% | -9 | 6 | 4.1% | -19% | -4.6 | 10%
